# Mtb betalactam: beta-lactam sensitization of Mtb H37Rv; M. tuberculosis H37Rv growth with meropenem, percent inhibition; hits of this screen are not shown here; inhibition, % at 25 µM; 0.27% of 330,000 active; AID 434955;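 active = about 74% or more and at least 40 points above the plate without the antibiotic, then above 30% in a dose series; inconclusive = first-round hits that could not be retested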;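 also: growth measured after seven days incubation then overnight dye step; 0% = bacteria only wells and 100% = bacteria with antibiotic; twin plates without the antibiotic show which effects depend on it; some results filed as inactive read as strong as hits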
# RecA intein inh: Mtb RecA intein splicing inhibition; P9WHJ3; cell-free RecA intein splicing, fluorescence; inhibition, %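 (about 9 µM by stock and volumes)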; 0.75% of 290,000 active; AID 2221; in the data active = inhibition above about 30%; inconclusive = no clear call, values can overlap the other calls;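 also: 0% = vehicle wells and 100% = reference inhibitor control wells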
# Target sequence (P9WHJ3 whole entry, looked up): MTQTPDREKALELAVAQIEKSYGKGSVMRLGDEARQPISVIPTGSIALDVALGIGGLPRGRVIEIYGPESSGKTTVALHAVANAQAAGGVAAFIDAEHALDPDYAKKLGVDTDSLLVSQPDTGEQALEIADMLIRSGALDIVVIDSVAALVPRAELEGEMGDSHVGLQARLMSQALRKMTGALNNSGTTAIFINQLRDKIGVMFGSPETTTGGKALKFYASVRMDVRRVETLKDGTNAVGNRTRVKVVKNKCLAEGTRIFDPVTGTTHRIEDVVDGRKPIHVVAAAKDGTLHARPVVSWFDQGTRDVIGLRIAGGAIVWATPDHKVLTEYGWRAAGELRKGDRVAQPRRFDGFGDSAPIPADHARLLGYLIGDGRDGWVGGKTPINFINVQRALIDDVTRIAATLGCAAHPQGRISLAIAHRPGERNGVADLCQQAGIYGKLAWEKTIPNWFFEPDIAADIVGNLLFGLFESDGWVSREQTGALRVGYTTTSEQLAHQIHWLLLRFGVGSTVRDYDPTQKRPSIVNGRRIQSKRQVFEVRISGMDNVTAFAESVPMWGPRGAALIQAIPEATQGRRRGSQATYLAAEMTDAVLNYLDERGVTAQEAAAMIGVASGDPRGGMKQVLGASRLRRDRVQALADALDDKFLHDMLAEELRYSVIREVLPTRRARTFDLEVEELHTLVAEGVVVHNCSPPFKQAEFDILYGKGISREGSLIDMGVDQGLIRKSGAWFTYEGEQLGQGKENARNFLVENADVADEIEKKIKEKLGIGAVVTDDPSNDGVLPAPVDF
# Mtb H37Rv: M. tuberculosis H37Rv growth inhibitors, H37Rv strain (AID 1626) | M. tuberculosis H37Rv growth inhibition; higher % means a stronger effect | inhibition, % at 10 µM, or IC50 in µM where a hit was titrated | 0.95% of 220,000 active;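 active = confirmed in a dose series; inconclusive = inhibition above 80% but not taken into the dose series; inactive = below 80% or under 30% at every dose of the series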;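 also: bacteria incubated seven days before Alamar blue readout; 0% = bacteria only wells and 100% = bacteria with antibiotic wells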
# Arbovirus inh: arbovirus infection inhibition | inhibition, % at 10 µM | 0.37% of 200,000 active | arbovirus infection cell-based antiviral screen | AID 1251;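 active = inhibition from about 30%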;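 also: bluetongue infection of BSR cells; cell survival read as ATP light after 72 h; 0% = infected wells without compound and 100% = uninfected wells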
# YopH PTP inh: YopH (Yersinia) phosphatase inhibition. inhibition, %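 (about 10 µM by stock and volumes)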. AID 898. fluorescence Ex485/Em525. 0.16% of 140,000 active;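 active = inhibition of 50% or more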;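 also: controls were vehicle for no effect and minimum signal wells for full effect; inactives centre near -20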
# Arbovirus inh repeat: recorded beside Arbovirus inh, whose call it bears; inhibition, %; measured here: 10K subset replicate screen; many hits read low in the repeat;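 first of two repeat runs on a subset; 0% = infected and 100% = uninfected wells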
# The depositor's hits bear a star; ? = inconclusive; . = no result given. Not all compounds are listed; the hit share may differ from the screen's.
SMILES,Mtb betalactam,RecA intein inh,Mtb H37Rv,Arbovirus inh,YopH PTP inh,others
CC(C)(C)C(=O)Nc1ccc(C(=O)N/N=C/C2CC3C=CC2C3)cc1 (configuration not stated),0,0.5,-11%,-3,-36,
Cc1ccc(Cn2nnc3c(=O)[nH]c(C4CCN(C(=O)c5cccs5)CC4)nc32)cc1,4,-0.1,5%,9,-95,
O=C(Cn1c(=O)oc2cc(S(=O)(=O)N3CCCCC3)ccc21)N1CCc2ccccc21,-5,-0.1,.,-20,-25,
CCCC1CCc2c(sc(NC(=O)OCC)c2C#N)C1 (configuration not stated),-3,-1.7,3%,-19,-37,
COC(=O)c1c(N2C(=O)CC(Sc3ncccc3C(=O)O)C2=O)sc(C)c1C (configuration not stated),2,2.1,-7%,.,.,
O=C(O)CCN1C(=O)/C(=C\c2ccc(OCc3ccccc3)c(OCc3ccccc3)c2)SC1=S,8,-0.4,.,.,.,
COc1ccc(S(=O)(=O)N(C)CC(=O)N2CCCCCC2)cc1OC,-10,0.0,1%,0,27,
Cc1ccc(CN(C)C(=O)C2CCC(=O)N(C3CCCCCC3)C2)cc1 (configuration not stated),-6,1.2,.,.,.,
CCNc1nc(NCC)n2c(SCC(=O)Nc3ccccc3)nnc2n1,-4,-1.4,3%,2,.,
COc1cc(NC(=O)c2c(F)c(F)c(OC)c(F)c2F)ccc1NC(=O)c1cccs1,-13,8.5,.,.,.,
Cc1cc2cc(CNS(=O)(=O)c3ccccc3)ccc2n1C,91,10.0,64%,-9,-18,Arbovirus inh repeat=-5
CCn1cc(C(=O)NN)c(=O)c2cc(F)c(N3CCOCC3)cc21,?,-0.1,.,.,.,

# Five compounds already listed, arranged by number of heavy atoms, low to high:
SMILES,Mtb betalactam,RecA intein inh,Mtb H37Rv,Arbovirus inh,YopH PTP inh,others
CC(C)(C)C(=O)Nc1ccc(C(=O)N/N=C/C2CC3C=CC2C3)cc1 (configuration not stated),0,0.5,-11%,-3,-36,
CCNc1nc(NCC)n2c(SCC(=O)Nc3ccccc3)nnc2n1,-4,-1.4,3%,2,.,
COC(=O)c1c(N2C(=O)CC(Sc3ncccc3C(=O)O)C2=O)sc(C)c1C (configuration not stated),2,2.1,-7%,.,.,
Cc1ccc(Cn2nnc3c(=O)[nH]c(C4CCN(C(=O)c5cccs5)CC4)nc32)cc1,4,-0.1,5%,9,-95,
O=C(O)CCN1C(=O)/C(=C\c2ccc(OCc3ccccc3)c(OCc3ccccc3)c2)SC1=S,8,-0.4,.,.,.,

# Further compounds follow.
SMILES,Mtb betalactam,RecA intein inh,Mtb H37Rv,Arbovirus inh,YopH PTP inh,others
S=C(NCc1ccco1)Nc1ccc(Cl)cn1,3,-1.1,.,.,.,
COc1ccc2[nH]c3c(=O)n(CCCN4CCOCC4)cnc3c2c1,0,4.0,-1%,.,.,
O=C(O)CSc1ncn[nH]1,7,-0.1,0%,2,15,
CC(C)CC(NC(=O)c1ccccc1)C(=O)N/N=C/c1ccco1 (configuration not stated),-1,2.8,-2%,-3,-27,
Cc1ccc(Cl)c2sc(NC(=O)C3CC3)nc12,1,-1.5,.,.,.,
NC(=O)COc1c(-c2ccc(Br)o2)oc2ccccc2c1=O,-3,-2.1,.,.,.,
O=C(NCCc1c[nH]c2ccccc12)c1cccc(S(=O)(=O)Nc2ccccc2Cl)c1,6,9.2,2%,6,-29,
CCOC(=O)CNC(=S)N(Cc1ccccc1)Cc1cccs1,-8,6.0,-5%,1,.,
O=C(NC1CC1)C1C2C3C4CC5C3C5C4C12 (configuration not stated),-3,1.8,0%,5,-30,
Cc1ccccc1Cn1c(CN2CCc3ccccc3C2)nc2c1c(=O)n(C)c(=O)n2C,4,5.6,5%,-2,-18,
OCCNCCNCc1ccc(-c2ccccc2)cc1,-4,2.4,-4%,-23,.,
NC(=O)C1CCN(C(=O)c2ccc3c(=O)n(Cc4ccco4)c(SCC(=O)c4ccc(F)cc4)nc3c2)CC1,-1,13,-3%,1,.,
CN(C)C(C)(C)/C=C/C(O)(c1ccccc1)c1ccccc1,-5,2.4,-5%,.,.,
O=C(CCn1cnc2ccccc21)N/N=C/c1ccccc1O,39,-3.4,3%,-20,-28,
COc1cc(/C=N/NC(=O)CNc2n[nH]c(=O)[nH]c2=O)ccc1OCc1ccccc1,1,0.9,3%,.,.,
COC(=O)CC(=O)CSc1nc(C)cc(C)c1C#N,8,-3.8,-5%,8,-47,
CCOc1cc(N2CCOCC2)c(OCC)cc1NC(=O)C(C)C,-9,-4.0,-8%,.,.,
CCOC(=O)N=Nc1c(O)n(CC)c2ccccc12,4,-0.8,-12%,-4,-26,
CSCCC(NC(=O)COc1ccccc1)C(=O)N1CCN(c2ccccc2F)CC1 (configuration not stated),-1,-0.5,-7%,14,-24,
Cc1cn(C2OC(COC(=O)c3ccccc3)C(O)C2O)c(=O)[nH]c1=O (configuration not stated),-1,2.4,-4%,-4,0,
O=C(C1CCC(CNS(=O)(=O)c2ccc(F)cc2)CC1)N1CCOCC1 (configuration not stated),-8,1.2,3%,1,.,
COc1ccc(N2CCN(C(=O)C3CCCN(S(=O)(=O)c4cccc5cccnc45)C3)CC2)cc1 (configuration not stated),?,-0.9,9%,1,-14,Arbovirus inh repeat=-4
O=C(NC(=S)NNC(=O)c1ccco1)c1ccc(Br)cc1,94,5.2,.,.,.,
COc1cc(C(=S)N2CCOCC2)cc(OC)c1OC(=O)c1ccc(F)cc1,1,-3.9,.,.,.,
COCCCNC(=O)COc1cc2c(c3oc(=O)c(C)c(C)c13)CCC(C)(C)O2,-1,-2.1,.,.,.,
O=C(CN(C(=O)CNC(=O)c1cccs1)c1ccc(F)cc1)NC1CCCCC1,11,-1.9,.,.,.,
Cc1ccc(S(=O)(=O)N(Cc2ccccc2)c2ccccc2C(=O)NCc2cccnc2)cc1,-2,2.3,8%,-12,-49,
Cc1nc(N)sc1-c1csc(Nc2ccc(S(N)(=O)=O)cc2)n1,2,-0.8,.,.,.,
C=CCOC(=O)C1=C[C@H](c2ccc(Br)cc2)C[C@H](OCCCCO)O1,2,4.0,4%,.,.,
CCN(CC)CCN1C(=O)C(=O)/C(=C(/O)c2ccc(OC(C)C)cc2)C1c1ccncc1 (configuration not stated),-8,-1.1,-5%,13,-5,
COc1ccc(OCC(=O)N2CCN(S(=O)(=O)c3ccc(Cl)cc3)CC2)cc1,-1,2.4,-6%,7,-46,
CC(C)CC(=O)Nc1nnc(CCc2ccccc2)s1,5,0.5,.,.,.,
CC(C)(C)NC(=O)NC(=O)CN1CCN(Cc2ccccc2)CC1,-1,1.4,0%,1,.,
Cc1cccc(C)c1-n1c(SCC(=O)NCc2ccco2)nc2ccccc2c1=O,-3,1.5,-4%,-1,-10,
O=C(O)c1ccc(N/N=C/c2cccc(C(F)(F)F)c2)cc1,6,-6.2,.,.,.,
Cc1ccnc(SC2CC(=O)N(c3ccc(Cl)cc3)C2=O)n1 (configuration not stated),0,7.7,.,.,.,

# The closing 2 entries of the part before open the next one:
SMILES,Mtb betalactam,RecA intein inh,Mtb H37Rv,Arbovirus inh,YopH PTP inh,others
O=C(O)c1ccc(N/N=C/c2cccc(C(F)(F)F)c2)cc1,6,-6.2,.,.,.,
Cc1ccnc(SC2CC(=O)N(c3ccc(Cl)cc3)C2=O)n1 (configuration not stated),0,7.7,.,.,.,
COc1ccc(CCNC(=O)CCCCCNc2nc(=S)[nH]c3ccccc23)cc1OC,4,-1.8,7%,6,-12,
Cc1cc(NC(=O)CS(=O)(=O)Cc2ccccc2)no1,-5,-2.2,-3%,7,.,
Cc1nc2ccccc2c(C)c1CC(=O)N(C)CC(=O)Nc1cccc(F)c1,6,-0.1,.,.,.,
COc1cc(C(c2c(C)[nH][nH]c2=O)c2c(C)[nH][nH]c2=O)ccc1OS(=O)(=O)c1ccc(C)cc1,-5,98*,-8%,-10,-9,
Cn1c(=O)c(C(=O)CN2CCCCC2)c(N)n(Cc2ccccc2)c1=O,-8,0.2,-10%,.,.,
O=C(NCc1cccnc1)c1cccc(NC(=O)c2ccco2)c1,2,-1.8,.,-5,4,
O=C(CSc1ccccc1)Nc1ccc(S(=O)(=O)Nc2ncccn2)cc1,-1,-1.4,-5%,20,.,
O=C1CCCN1CCCNc1ccc2nnc(CCC(=O)N3CCN(c4ccccc4)CC3)n2n1,1,0.6,.,.,.,
CC1(C)CC(=O)c2sc(NS(=O)(=O)Cc3ccccc3)nc2C1,-4,-2.3,1%,8,-19,
CC1(C)CCc2cc(CN3CCN(c4ccccn4)CC3)ccc2O1,6,2.8,.,.,.,
CCOc1ccc(-n2c(=O)c3sccc3n(CC(=O)NCc3ccco3)c2=O)cc1,2,0.9,0%,1,-21,
CC(=O)c1cccc(NC(=O)C2C3C=CC(C3=C(c3ccccc3)c3ccccc3)C2C(=O)O)c1 (configuration not stated),94,-3.7,72%,-13,.,
O=c1ccc2cc(S(=O)(=O)N3CCN(c4ccccc4)CC3)ccc2[nH]1,9,3.9,.,.,.,
C/C(=N/NS(=O)(=O)c1ccc(Cl)cc1)c1ccncc1,2,1.2,.,.,.,
COc1ccc(S(=O)(=O)NCc2cccnc2)cc1NC(=O)c1ccc(Cl)cc1,-8,2.1,.,.,.,
COc1ccc(CCC(=O)OCC(=O)N(C)c2c(N)n(Cc3ccccc3)c(=O)[nH]c2=O)cc1,-3,1.4,.,.,.,
CC(=O)Nc1ccc(NC(=O)C2CCCCN2S(=O)(=O)c2ccc(C(C)(C)C)cc2)cc1 (configuration not stated),-2,2.2,.,.,.,
COc1cccc(CNC(=O)CNC(=O)N2CC(=O)Nc3ccccc32)c1,-6,0.1,.,.,.,
O=C(/C=C/c1cccs1)c1ccc(Br)cc1,94,1.0,10%,10,-5,
Cc1cccc(C(=O)N/N=C/c2ccc(OCC(=O)N3CCCCC3)cc2)c1,-3,2.4,-5%,2,-22,
CCCn1c(=O)c(C(=O)NCc2ccco2)c(O)c2ccccc21,-7,-1.7,-1%,9,.,
COc1ccc(CCNc2ncnc3c2oc2ccccc23)cc1OC,0,1.1,10%,-3,-45,
CCOc1ccc(CNS(=O)(=O)c2c(C)nc3sccn3c2=O)cc1OC,1,-2.8,.,.,.,
COc1cccc(C(=O)C2CCCN(Cc3cccc4c3OCO4)C2)c1 (configuration not stated),-2,2.9,7%,-1,.,
COc1ccc(NS(=O)(=O)c2cc(NC(=O)c3ccco3)ccc2N2CCCCC2)cc1,9,2.0,6%,-21,-12,
Cc1cc(C)cc(NC(=O)c2nnn(Cc3cc(C)ccc3C)c2N)c1,?,2.2,0%,-37,-20,
FC(F)(F)c1cccc(NC(=S)N2CCN(c3ccccn3)CC2)c1,5,-1.7,-1%,14,.,
O=C1CC(c2ccccc2)CC(O)=C1C=NCCN1CCN(Cc2ccccc2)CC1 (configuration not stated),-7,-0.4,9%,.,.,
CC(C(c1cccs1)c1c(N)n(C)c(=O)n(C)c1=O)[N+](=O)[O-] (configuration not stated),11,-1.2,-3%,.,.,
CCOC(=O)c1cc(CC)sc1NC(=O)CC1Sc2ccc(C(F)(F)F)cc2NC1=O (configuration not stated),-2,-1.1,-1%,7,-18,
Cc1ccc(C)c(S(=O)(=O)N2CCCOC2CNC(=O)C(=O)NCCC2=CCCCC2)c1 (configuration not stated),-8,0.5,-6%,6,-15,
Cc1ccc(N2C(=O)N(CC(=O)C(C)(C)C)c3ccccc3S2(=O)=O)cc1,.,.,4%,13,.,
COc1cccc(N2CCN(c3ccc4nnc(CCC(=O)Nc5ccccn5)n4n3)CC2)c1,4,-3.4,.,.,.,
CC(C)(C)NC(=O)C1CCN(S(=O)(=O)c2ccc(Br)cc2)CC1,-3,0.3,-7%,2,-8,
Cc1c(-c2nc(N)nc(Nc3ccccc3)n2)oc2ccccc12,73,-1.0,20%,0,-22,
NNC(=O)CSc1c(-c2cccs2)[nH]c2ccccc12,-3,-1.0,3%,-6,-11,
COc1cc(-c2noc(C)n2)cc(OC)c1OC,-9,2.3,1%,.,.,
CCC(C)(C(=O)NC1CCCCC1)N(CC1CCCO1)C(=O)Cc1cccs1 (configuration not stated),-8,-0.4,-16%,-3,.,
CCOC(=O)c1[nH]ncc1CN1CCN(Cc2ccccc2)C(CCO)C1 (configuration not stated),-5,-4.4,-6%,0,.,
O=C(C1CCN(Cc2cn[nH]c2-c2ccc(F)cc2F)CC1)N1CCOCC1,-6,-2.6,-6%,5,.,
Nc1nc(NCc2c(F)cccc2Cl)nn1-c1ccccc1,55,-0.8,-7%,6,0,
Cn1c(=O)c2c(ncn2CC(=O)OCC(=O)NCc2ccc(Cl)cc2)n(C)c1=O,.,1.1,-4%,-2,-7,
CCCS(=O)(=O)c1snnc1C,-6,.,-9%,7,2,
CCOc1ccc(-n2c(N)c(C(=O)N3CCN(C)CC3)sc2=S)cc1,-4,1.4,3%,10,.,
C=CCC(C)(NCc1ccccc1)c1ccccc1 (configuration not stated),-8,-1.0,-6%,8,-19,
CC(=O)N1CCN(Cc2nc3cc(NC(=O)C4CCCCC4)ccc3n2C)CC1,6,1.9,-5%,6,7,

# Bioassay records: PubChem, several laboratories
